Screening data from PubChem BioAssay.
HPGD block = inhibitors of human 15-hydroxyprostaglandin dehydrogenase (HPGD). purified HPGD, NADH fluorescence kinetic, PGE2 substrate. 150,000 tested, 4.3% active. Potency, µM, without a hit: at the top dose activity change, negative = inhibition, actives largely listed as inhibitors. P15428; active = well fitted inhibition curve with a large enough effect (not every such curve was filed as active); inconclusive = small, poorly fitted or top-dose-only effect, or another doubt; inactive = no such curve, though single readings can be large or run the other way;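 further: top concentration of the series not given in the record; plate controls included wells without enzyme; inactives centre near -10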
Target sequence (P15428 whole entry, looked up): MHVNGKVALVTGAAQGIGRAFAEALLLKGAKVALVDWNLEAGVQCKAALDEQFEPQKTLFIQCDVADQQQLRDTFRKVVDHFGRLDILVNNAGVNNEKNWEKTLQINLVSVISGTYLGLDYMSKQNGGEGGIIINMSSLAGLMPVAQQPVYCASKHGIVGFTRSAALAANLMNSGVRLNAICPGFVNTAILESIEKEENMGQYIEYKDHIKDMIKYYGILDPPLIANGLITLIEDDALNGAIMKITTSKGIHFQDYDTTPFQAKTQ
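NADH formation kinetics: reaction with 30 uM PGE2 and 1 mM NAD+ (final), 20 nM enzyme, Tris-HCl pH 8 with Tween 20, after 15 min compound preincubation at room temperature. Fluorescence change, last versus first of five reads.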
The depositor's hits bear a star; ? = inconclusive; & = joins results of further samples. On the % scale 0 is the no-effect control and ±100 the full control effect; potency means the concentration at half of the fitted maximal effect. Only part of the results is shown; rates above refer to the full screens.

HPGD block	structure
-6.6%	Cc1c(/C(O)=C2\C(=O)C(=O)N(CCCN(C)C)C2c2ccncc2)cnn1-c1ccccc1 (stereo not given)
-4.1%	CCOC(=O)N1CCC(NC(=O)C(NC(=O)C2CCC(C)CC2)C(C)CC)CC1 (stereo not given)
-11.5%	O=C(COC(=O)CCC1CCCC1)Nc1ccc(Cl)cn1
-22.1%	CCOC(=O)c1sc(NC(=O)C(CC)OC(=O)C(CC(C)C)NC(=O)c2ccccc2)nc1C (stereo not given)
-8.7%	C/C=C(\C)CN1CCN(c2ccccc2)CC1
-19.6%	CCc1c(C)nc2ncnn2c1NCCc1ccc(OC)c(OC)c1
-26.8%	N=c1scc(-c2ccccc2)n1/N=C/c1ccco1
-9.5%	CCN1CCCC1CNC(=O)COc1cc(=O)n(C)c2ccccc12 (stereo not given)
-9.1%	Cc1ccc(-c2nc(-c3cccnc3)sc2CC(=O)Nc2ccc3nc(C)sc3c2)cc1
-19.2%	O=C1CS/C(=N/N=C/c2ccccc2OS(=O)(=O)c2ccccc2)N1
-13.5%	COc1cc(C2N(c3ccc(F)cc3)C(=O)C3CCCN32)cc(OC)c1OC (stereo not given)
-26.3%	CC(C)CC(=O)Nc1sc2c(c1C#N)CC(C)(C)NC2(C)C
-15.5%	CCOC(=O)Cc1csc(NC(=O)c2ccc(NC(C)=O)cc2)n1
-18.7%	O=C(Nc1nccs1)c1ccc(Br)c(S(=O)(=O)N2CCOCC2)c1
-9.1%	O=C(Cn1c(=O)oc2ccccc21)Nc1nc(-c2ccccc2)cs1
?	COC(=O)Cc1c(C)c2ccc(OCC(=O)NCc3ccc4c(c3)OCO4)cc2oc1=O
-23.5%	CCCc1cc(C(=O)OC)c(NC(=O)c2cc(C)on2)s1
-11.3%	CCOC(=O)CC(=O)CSc1nc2ccccc2c(=O)n1-c1ccc(C(=O)N2CCOCC2)cc1
-21.4%	COCCNC(=O)C(c1ccc(C)o1)N(C(=O)c1snc(C(N)=O)c1N)c1cc(C)cc(C)c1 (stereo not given)
-10.6%	CC1=C(OC(=O)c2ccc(Br)cc2)C(C)(C)C(c2ccccc2)OC1=O (stereo not given)
-13.3%	O=C(NNc1cccc(Cl)n1)c1cccnc1Cl
-4.9%	COC(=O)C1C(=O)c2c([nH]c(C(=O)OCC3CCCO3)c2C)CC1C (stereo not given)
-8.7%	c1ccc(C2=Nn3c(nnc3-c3ccccn3)SC2)cc1
-0.6%	COCC(C)NCc1ccc(C)cc1C (stereo not given)
-17.5%	O=S(=O)(NCC1CCCO1)c1cccc(S(=O)(=O)N2CCCC2)c1 (stereo not given)
?	COc1ccc2nc(SCC(=O)O)nc(C)c2c1
-6.4%	CC(C)(C)NS(=O)(=O)c1ccc(N2C(=O)c3ccccc3C2=O)cc1
-17.6%	Cc1cc(C)n(-c2ccc(C(=O)OCC(=O)c3c(N)n(C)c(=O)n(C)c3=O)cc2)n1
-8.1%	COC(=O)C1=C(C(=O)OC)[C@@H]2N(C)c3ccc(OC)cc3[C@@]23C[C@@H](C(=O)OC)N=C3N1
-5.8%	CCc1ccccc1NC(=O)c1cccs1

Reformatted as labelled records: 4 of the compounds above.
> CCOC(=O)Cc1csc(NC(=O)c2ccc(NC(C)=O)cc2)n1
  HPGD block: -15.5%

> O=C(Nc1nccs1)c1ccc(Br)c(S(=O)(=O)N2CCOCC2)c1
  HPGD block: -18.7%

> O=C(Cn1c(=O)oc2ccccc21)Nc1nc(-c2ccccc2)cs1
  HPGD block: -9.1%

> COC(=O)Cc1c(C)c2ccc(OCC(=O)NCc3ccc4c(c3)OCO4)cc2oc1=O
  HPGD block: ?

The list continues:
HPGD block	structure
-12.8%	C=CCC(C)(NCc1ccccc1)c1ccc(C)cc1 (stereo not given)
3.6%	COc1cccc(CNC(=O)C2CCN(S(=O)(=O)c3ccccc3)CC2)c1
-18.1%	Cc1nonc1NC(=O)N1CCCC1
-10.0%	O=C(CS(=O)(=O)Cc1ccccc1)Nc1ccc(S(=O)(=O)N2CCCCCC2)cc1
?	Cc1cccc(NC(=O)c2oc3ccc(S(=O)(=O)N4CCOCC4)cc3c2C)c1C
?	Cc1ccccc1-n1cnc2cc(NCc3cccs3)ccc21
-11.7%	Cc1ccc(S(=O)(=O)Nc2ccc(NC(=O)Nc3ccc(F)cc3F)cc2)cc1
-8.9%	COc1ccc(C(C(=O)NC2CCCCC2)N(C(=O)c2sc(C)nc2C)c2ccc(OC)cc2)cc1 (stereo not given)
-13.3%	COc1ccc(OC)c(C(c2nnnn2CCC(C)C)N2CCN(C(=O)c3ccco3)CC2)c1 (stereo not given)
-8.9%	O=C(CSc1nnc(C23CC4CC(CC(C4)C2)C3)o1)Nc1ccc(N2CCOCC2)c(Cl)c1
-0.1%	CCN(CC)CCOc1ccc2c(c1)C(=O)c1cc(OCCN(CC)CC)ccc1-2
-18.9%	COc1cccc(OC(=O)CSc2nnc(-c3ccccc3Br)o2)c1
?	COc1ccc(/C=N/n2c(-c3n[nH]c4c3CCC4)n[nH]c2=S)cc1OC
-4.4%	O=S(=O)(c1ccc(Cl)cc1)N1CCN(C2CCCCCC2)CC1
-5.1%	O=C(OC1CCOC1=O)c1ccc2ccccc2n1 (stereo not given)
-18.0%	CCOc1cc(NS(=O)(=O)c2ccc(NC(C)=O)cc2)c(OCC)cc1NC(=O)c1cccs1
-7.5%	CCS(=O)(=O)N1CCC(NC(C)=O)(c2ccccc2)CC1
10µM*	CC(C)COC(=O)n1ccc(C(=O)N2CCCCC2)n1
-9.8%	CCOC(=O)CC1=CC(=O)Nc2ccccc2N1
2.8%	COC(=O)C(C)N(C#N)c1nc(C)cc(C)n1 (stereo not given)
?	N#Cc1nc(-c2ccco2)oc1N1CCOCC1
-9.5%	Cc1ccccc1C(=O)NNc1ccc([N+](=O)[O-])cc1
14.1µM*	CCC(=O)Nc1ccccc1C(=O)OCc1ccc(C(=O)c2ccccc2)cc1
-8.5%	CCc1nnc(NC(=O)CSc2nnc(-c3ccncc3)n2C)s1
-7.6%	COc1ccc(NC2=C(c3ccc(OC)cc3)C(=O)c3ccccc32)cc1
14.1µM*	CC(=O)c1ccc2c3c(ccc(O)c13)CC2
-15.7%	O=C(NCNC(=O)c1ccccc1)c1ccccc1
-1.9%	Cc1cc(N2C(=O)C3C4c5ccccc5C(c5ccccc54)C3C2=O)no1 (stereo not given)
-3.8%	COc1cccc(-c2nc(CS(=O)(=O)CC(=O)N3CCc4ccccc43)c(C)o2)c1
?	CCCC1Nc2ccc(C(=O)O)cc2C2C=CCC12 (stereo not given)
17.8µM*	O=C(O)COc1ccc2c(-c3ccccc3)cc(=O)oc2c1
-4.1%	CCN(CC)CCn1c(-c2ccccc2)nc(=S)c2c1CC(C)(C)OC2
?	COc1ccc2oc(C(=O)C3CC3)c(N)c2c1
-5.2%	Cc1ccc(OCC(=O)OCc2c(C)noc2C)cc1C
?	COc1ccccc1-c1cncnc1-n1ccnc1
-25.3%	CCCc1nnc(NC(=O)CCC(=O)N2CCCCCC2)s1
-3.1%	CN(CCOC(=O)c1ccc2c(c1)OCCO2)C(C)(C)C
3.2%	CN=C(Nc1cc(C)nn1-c1ccccc1)c1ccc(F)cc1
-1.7%	COc1ccc(CCNC(=O)C(=O)NCC2OCCN2S(=O)(=O)c2ccc(Br)cc2)cc1OC (stereo not given)
-5.4%	FC(F)(F)c1ccc(N2CCOCC2)c(NC2=NCCCCC2)c1
-10.7%	O=C(Cn1cc2c(n1)CCCCC2)NC1CCCCCC1
-7.2%	CC(C)CNc1nc(N)[nH]c(=O)c1NC=O
-4.7%	CC(Oc1cccc(Cl)c1)C(=O)NCCCCc1ccccc1 (stereo not given)
-0.8%	COc1ccc(N2CCN(C(c3nnnn3CCc3ccccc3)C(C)C)CC2)cc1 (stereo not given)
-4.9%	C/C=C1/NN(CCCN2CCN(c3cccc(Cl)c3)CC2)C(=O)N1CCOc1ccccc1

Shown field by field: entries from further up.
Structure: CC(C)CC(=O)Nc1sc2c(c1C#N)CC(C)(C)NC2(C)C
  HPGD block = -26.3%
Structure: CCOC(=O)N1CCC(NC(=O)C(NC(=O)C2CCC(C)CC2)C(C)CC)CC1 (stereo not given)
  HPGD block = -4.1%

Next structures
HPGD block	structure
0.6%	CC1(C)CC(=O)C(CCCN2C(=O)c3ccccc3C2=O)C(=O)C1
-4.6%	CC(=O)c1ccc(OC(C)C)c(CN2CCCCC2)c1
-9.1%	Cc1ccc(C(=O)c2cc([N+](=O)[O-])ccc2N2CCCCC2)cc1
1.3%	CN1CCN(C(=O)C(Cc2ccccc2)NS(=O)(=O)c2ccc3c(c2)CCC(=O)N3)CC1 (stereo not given)
0.3%	Cc1ccc(C(=O)OC2OC(=O)C(Cl)=C2N2CCOCC2)cc1 (stereo not given)
-3.3%	CC(=O)Nc1ccc(S(=O)(=O)NCc2cccnc2)cc1
?	COCC(=O)Nc1ccc(Br)cc1
-5.5%	CCCCCCCOC1(c2ccccc2)OC(=O)c2ccccc21 (stereo not given)
?	COc1ccc(-c2cc(C(=O)N3CCN(C(c4ccccc4)c4ccccc4)CC3)no2)cc1OC
-6.6%	Cn1cnnc1SCC(=O)N1CCc2ccccc21
-5.4%	C[C@@](Cc1ccccc1)(NC(=O)CN)c1ccccc1
?	CC(=O)Nc1cccc(NC(=O)c2c(-c3c(Cl)cccc3Cl)noc2C)c1
-22.6%	COc1cc(C)nc(N2CCC(C(N)=O)CC2)n1
-12.4%	Cc1ccc(CNC(=O)c2ccc(C#CC(C)(C)O)s2)cc1
-8.2%	Cc1cc(C(=O)CSc2nc(N)cc(=O)[nH]2)c(C)n1CCc1ccc(Cl)cc1
-15.8%	Cc1ccc(CNC(=O)CSc2nnnn2C)cc1
?	CCCn1c(-c2ccc(F)cc2)nc2c(NCCN(CC)CC)nc(C)nc21
?	CCC(CC)C(=O)Nc1nnc(-c2cccs2)s1
-18.6%	CN(C)c1ccc(C(=O)OCC(=O)Nc2ccc(S(N)(=O)=O)cc2)cc1
-11.4%	CCC(Sc1nc(C)cc(=O)[nH]1)C(=O)Nc1sc2c(c1C#N)CCCC2 (stereo not given)
-12.3%	O=C(CSc1nnc(Cc2ccccc2)n1-c1ccc(Cl)cc1)N1CCOCC1
-21.5%	COc1ccc(C(=O)Nc2ccc(S(=O)(=O)NCc3ccco3)cc2)cc1OC
-2.1%	O=C(C[n+]1cccc(NC(=O)c2ccccc2)c1)c1ccccc1
-1.7%	CCOC(=O)c1ccc(NC(=O)CCOc2ccc(C)cc2)cc1
-12.8%	Cc1cccc(CSC2=NCCN2C(=O)C2CC2)c1
-18.3%	O=C(c1ccc(CNc2c(NC3CCCCC3)c(=O)c2=O)cc1)N1CCc2ccccc21
-26.6%	CCOC(=O)c1c(NC(=S)Nc2cc([N+](=O)[O-])ccc2OC)sc2c1CCCCC2
-2.7%	O=C(OC(C(=O)NC1CCCCC1)c1ccccn1)c1cccs1 (stereo not given)
?	N=C1C(c2nc3ccccc3[nH]2)=C(O)CN1c1ccc(F)cc1
-3.0%	CSc1nc(C)cc(SCCO)n1
0.9%	C=C(C)C(=O)OC
-2.9%&-4.0%	O=C(O)CCNC(=O)c1ccccc1
-8.9%	COc1ccc(OC)c(CNC(=O)C2CCN(S(=O)(=O)N3CCCC3)CC2)c1
-27.7%	CCN1/C(=C/C=C/C=C/c2sc3ccccc3[n+]2CC)Sc2ccccc21
-1.0%	O=C(NC1(C(F)(F)F)NC(=O)N(Cc2cccnc2)C1=O)c1cccs1 (stereo not given)
-5.9%	CC(=O)Nc1ccc(OCC(O)CN2CCN(Cc3ccccc3)CC2)cc1 (stereo not given)
?	COc1ccc(-c2nnc(-c3ccc(N(C)C)cc3)o2)cc1
-1.2%	CC(=O)c1cccc(NC(=O)NCCS(C)=O)c1 (stereo not given)
14.1µM*	Cc1cc(-c2ccccc2)c(C#N)c(=S)[nH]1
-0.9%	Cc1ccc(C(=O)Nc2ccc3c(c2)ncn3C)cc1
-11.5%	COc1ccc2nc(SCC(=O)Nc3ccc4c(c3)OCCO4)[nH]c2c1
-17.7%	COC(=O)c1sccc1NC(=O)c1ccncc1
-8.5%	Cc1ccc(S(=O)(=O)N[C@H](C(=O)OCn2nnc3ccccc3c2=O)C(C)C)cc1
?	Cc1ccc(-c2cc(C(=O)N3CCCC3)no2)cc1
-13.0%	Cc1ccc2cc(CN(Cc3cccs3)Cc3nnnn3CC3CCCO3)c(=O)[nH]c2c1 (stereo not given)
-6.1%	CCCCCCSc1nsc(NC(=O)CC(C)C)n1
?	COc1ccc2c(c1OC)C(=O)N1c3ccccc3SC21 (stereo not given)
-4.5%	CC1CN(CC(=O)Nc2cccc(C(=O)Nc3cccc(C(F)(F)F)c3)c2)CC(C)O1 (stereo not given)
?	O=C(CSc1n[nH]c(-c2ccc(S(=O)(=O)NC3CCCCC3)cc2)n1)N1CCCC1
-7.5%	Nc1nc(N)nc(-c2ccccn2)n1
-19.6%	CCC(C)c1ccc(S(=O)(=O)N2CC(=O)Nc3ccccc32)cc1 (stereo not given)
0.3%	COC(=O)CCN1CCC(C(N)=O)CC1
0.7%	O=C1NC(=O)C2(CCC(C(=O)O)C2)N1 (stereo not given)
-7.7%	CCN1CCN(C(=O)c2cc3c(=O)n(C)c4ccccc4c3n2C)CC1
5.0%	COc1ccc(NC(=O)c2cn(CCC#N)nc2-c2cccs2)cc1
-10.2%	CCOc1ccc(-c2nnc(N)o2)cc1
-15.7%	N#Cc1cn(CC(=O)NCCc2c[nH]c3ccccc23)c2ccccc12

Two entries from above, set out differently:
SMILES | HPGD block
COc1ccc(NC(=O)c2cn(CCC#N)nc2-c2cccs2)cc1 | 5.0%
O=C(CSc1n[nH]c(-c2ccc(S(=O)(=O)NC3CCCCC3)cc2)n1)N1CCCC1 | ?
